Compound activity from PubChem BioAssay.
CapD inh – blocks the Bacillus anthracis CapD enzyme; AID 492967; z-score (concentration not given with the values); 0.23% of 140,000 active; purified CapD enzyme, fluorescence intensity read-out; hits give low values; some hits fall short of the stated cut;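 active = z-score under -4 in either of two replicates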;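 note: stock transfer was 100 nL into about 40 µL; score is relative to mean and spread of the plate; one replicate is shown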
AID504770 – growth inhibitors of E. coli YBA685 in a screen for V. cholerae RctB (chromosome II replication) inhibitors | E. coli YBA685 rctB-dependent plasmid, OD600 growth, 3 h; hits give low values | z-score (no concentration beside the values) | 0.27% of 130,000 active;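 active = z-score under -2 on both plates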;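 note: wells of about 30 µL received 100 nL stock; score is relative to mean and SD of the test wells; the first replicate is given; strong numbers were not always called active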
* marks the source's active call; other numbers are inactive results; . = no result given. The list is partial. The share of hits here may be higher or lower than overall.

SMILES	CapD inh	AID504770
CCN(CC)C(=O)C1CC(c2ccc(F)cc2)=NO1 (stereo not drawn)	0.59	-1.8
CCCN(CCC)C(=O)c1cnn(-c2ccc(F)cc2)c1-n1cccc1	-0.66	-0.65
CC(C)(C)OC(=O)NC1CCN(C(=O)c2ccco2)CC1	-0.53	-0.25
CC(C)C(N)c1nc2ccccc2[nH]1 (stereo not drawn)	.	-0.6
CCN1C(=O)C2C(c3ccc(F)cc3)NC(CCSC)(C(=O)OC)C2C1=O (stereo not drawn)	.	-0.45
CCOC1(OCC)N=C(N)C2(C#N)C(c3ccc(NC(C)=O)cc3)C12C#N (stereo not drawn)	0.97	0.4
Oc1ccccc1N1CCN(C=Nc2nc3ccccc3nc2N2CCOCC2)CC1	.	0.05
CCNc1nc(SCC(=O)OCC)nc2sc3c(c12)CCC(C)C3 (stereo not drawn)	0.42	-0.55

SMILES	CapD inh	AID504770
COC(=O)c1csc2c(C(F)(F)F)cc(N3CCN(S(=O)(=O)c4cc(Br)c(Cl)s4)CC3)nc12	79	.
CCOC(=O)C(C(N)=O)C1(O)OC(c2ccccc2)=CC1=O (stereo not drawn)	-2.1	-1.2
O=C(CN1C2=NCCCN2c2ccccc21)c1ccc([N+](=O)[O-])cc1	-0.07	.
CCCCOC(=O)C1Cc2ccccc2C(=O)O1 (stereo not drawn)	1.3	1.2
O=C1CCC(=O)N1CC(O)Cn1c2ccc(Cl)cc2c2cc(Cl)ccc21 (stereo not drawn)	0.94	.
CCCNC(=O)CCC(=O)N(CCOC)C1CCN(C)CC1	-0.27	.
CCN(CCNS(=O)(=O)c1cccc2nonc12)c1cccc(C)c1	-0.31	.
O=C(Nc1ccc2nsnc2c1)C1CC1	.	0.15

SMILES	CapD inh	AID504770
Cc1nc(Nc2ccccc2)nc(=O)n1-c1ccccc1	-0.27	-0.3
COc1ccc(/C=C2\SC(=N)N(c3ccc(F)cc3)C2=O)cc1	-0.29	.
CC1=C(C(=O)Nc2ccc(CC(=O)N3CCC4(CC3)OCCO4)cc2)SCCO1	-0.17	0.45
COc1ccccc1NC(=O)CC(NC1CCCCC1)C(=O)O (stereo not drawn)	-1.5	2.1
COc1ccc(C2C(C(=O)OCCOc3ccccc3)=C(C)NC3=C2C(=O)CC(C)(C)C3)c(OC)c1OC (stereo not drawn)	31	.
CCNC(=S)N(C)Cc1cc(Br)ccc1OC	.	0.05
O=C(c1cnn(-c2ccc(Cl)cc2)n1)c1cccs1	-0.7	-0.2
CCOC(=O)c1ccc(NC2=NC(=S)N(c3ccccc3Cl)C23CCCCC3)cc1	-0.005	.

SMILES	CapD inh	AID504770
CC(=O)Nc1nc(-c2ccccc2)nc2sc(C#N)c(C)c12	2.1	0.95
O=C1C2Cc3ccccc3CN2C(=S)N1Cc1ccccc1 (stereo not drawn)	.	-0.25
CCN1CCN(C(=O)C(N)Cc2ccccc2)CC1 (stereo not drawn)	.	0.8
COc1ccc(N2CCN(CCNC(=O)c3nnc(-c4ccc5c(c4)OCO5)o3)CC2)cc1	-0.27	1.6
CCOC(=O)c1cc(-c2cc(OC)ccc2OC)no1	-0.51	0.15
Cc1nnc(SCC(=O)OC2CC(C)CCC2C(C)C)[nH]c1=O (stereo not drawn)	-0.11	-0.35
COc1ccc(S(=O)(=O)NCc2cccnc2)cc1C(=O)N1CCOCC1	.	2.5
ONC(=Nc1ccc(C(F)(F)F)cc1)c1c(F)cccc1F	-0.15	1.2

SMILES	CapD inh	AID504770
Cc1n[nH]c(C)c1CCC(=O)O	.	0.5
COc1cccc2cc(C(=O)Nc3ccc(Cl)cc3)c(=Nc3ccc(C(=O)O)cc3)oc12	-0.04	.
O=S(=O)(NCc1cccnc1)c1ccc2ccccc2c1	0.52	1.1
Cc1cc2nc(-c3cccnc3Cl)n(Cc3ccccc3Cl)c2cc1C	9.2	.
O=C(O)CC1NC(=O)c2ccc(Br)cc21 (stereo not drawn)	.	0.25
CCOC(=O)C(Cc1ccccc1)c1ccnc2nc(-n3c(C)ccc3C)nn12 (stereo not drawn)	0.85	.
CN(C(=O)Cn1ncc2c1-c1ccccc1OC2)C1CCCCC1	0.095	1.4
CC1(C)CCCC2=C1CC(C(=O)O)C(C(=O)O)C2 (stereo not drawn)	.	0.55

SMILES	CapD inh	AID504770
Cc1c(NC(=O)c2cnn3c(C(F)(F)F)cc(-c4ccc(Br)cc4)nc23)c(=O)n(-c2ccccc2)n1C	-0.52	.
O=C(/C=C/c1ccco1)Nc1ccc(S(=O)(=O)N2CCCC2)cc1	-3.2	-0.45
N#CC(Sc1ccccc1)c1ccc(Cl)cc1 (stereo not drawn)	-0.34	-0.75
C=CCn1c(SCC(=O)Nc2ccccc2)nc2sc(CC)cc2c1=O	0.005	.
COc1ccc(-n2c(SCC(=O)Nc3nccs3)nc3c(sc(=S)n3-c3ccccc3)c2=O)cc1OC	-0.35	.
O=C(Nc1ccccc1)NC(c1ccccc1)c1nnc(-c2ccccc2)o1 (stereo not drawn)	0.16	-1.4
O=C(c1cc(=O)c2ccccc2o1)N1CCN(c2ccccc2)CC1	0.12	-0.65
NC(=O)COC(=O)COc1ccc(Cl)cc1Cl	-0.49	-0.35

SMILES	CapD inh	AID504770
Cc1cc(C)nc(Sc2ccc(OC(=O)c3ccccc3C)cc2)n1	-0.18	.
Cc1cc(C)cc(-n2cnc3ccccc3c2=O)c1	.	-0.8
O=C(CSc1nnc(-c2ccncc2)n1-c1ccccc1)c1ccc(NS(=O)(=O)c2ccccc2)cc1	0.05	.
O=C1OC(c2ccccc2I)=N/C1=C/c1ccc(Cl)c(Cl)c1	-0.92	.
COC(=O)CNC(=O)/C(C)=N\N1CCc2ccccc21	-2	.
Cc1nn(-c2ccccc2)c2c1P(=O)(O)/C(=C1/N(C)c3ccccc3C1(C)C)C=N2	.	-0.35
Cc1cc(Cc2ccc(N)c(C)c2)ccc1N	0.34	-0.35
CCOC(=O)Cc1csc(NC(=O)CCN2C(=O)c3ccccc3C2=O)n1	-0.04	.

SMILES	CapD inh	AID504770
Cc1cc2c(c(C)nn2-c2ccccc2)c(=O)o1	-0.14	-0.7
N#CC1(C#N)C(c2ccccc2)OC23CCCCC2C1(C#N)C(=N)O3 (stereo not drawn)	13	0.6
Cc1nn(S(=O)(=O)N(C)C)c(C)c1Br	-0.49	-0.1
CC(Sc1nccn1C)C(=O)NC1(C#N)CCCCC1 (stereo not drawn)	.	-0.2
N#Cc1c(Sc2ccccc2)nc(-c2ccccc2)nc1-c1ccc(Cl)cc1	-0.28	.
COc1ccc(N=C2C(=O)N(Cc3ccccc3Cl)c3ccccc32)cc1	-0.32	.
CC(C)C(NC(=O)c1ccccc1F)C(=O)O (stereo not drawn)	0.11	0.45
CC1(C(=O)NCc2ccccc2)CCC(=O)N1CCC1=CCCCC1 (stereo not drawn)	-0.04	-0.1

SMILES	CapD inh	AID504770
O=c1[nH]c(SCc2cccc(C(F)(F)F)c2)nc2c1cnn2-c1ccccc1	0.21	-0.1
CC1(C)CC2CC(C)(CN2/C=C/C#N)C1 (stereo not drawn)	.	-0.45
Cc1ccc(NC(=O)COC(=O)C2CC2C)c(S(=O)(=O)N2CCCCC2)c1 (stereo not drawn)	.	0.35
O=C1NCCN1c1ncc([N+](=O)[O-])s1	-2.1	.
O=C(COc1ccc(-n2cnnn2)cc1)NC12CC3CC(CC(C3)C1)C2	.	0.3
OC(CNc1ccccn1)COc1ccc(OCC(O)CNc2ccccn2)cc1 (stereo not drawn)	.	-0.2
C1=C(CCNc2nc3ccccc3n3nnnc23)CCCC1	26	-0.6
CCOc1ccc(C(=O)CSCC(=O)O)cc1	-1.2	-0.8

Four compounds picked at random from the list so far:
SMILES	CapD inh	AID504770
CCOc1ccc(C(=O)CSCC(=O)O)cc1	-1.2	-0.8
Cc1ccc(NC(=O)COC(=O)C2CC2C)c(S(=O)(=O)N2CCCCC2)c1 (stereo not drawn)	.	0.35
O=c1[nH]c(SCc2cccc(C(F)(F)F)c2)nc2c1cnn2-c1ccccc1	0.21	-0.1
O=C(COc1ccc(-n2cnnn2)cc1)NC12CC3CC(CC(C3)C1)C2	.	0.3

Next part.
SMILES	CapD inh	AID504770
COc1cc(OC)c(/C=N/O)cc1Br	1.6	1.1
CC(=O)c1ccc2c(c1)C1C=CCC1C(c1cccc3ccccc13)N2 (stereo not drawn)	58	.
O=S(=O)(NCCc1ccccc1)c1cccc2nsnc12	-0.46	.
O=C(CC(NCc1ccccc1)C(=O)O)c1ccc(Br)cc1 (stereo not drawn)	0.35	-0.75
CC(C)(C)OC(=O)N(CCOC(=O)NCCc1c[nH]c2ccc(O)cc12)Cc1cccc(Cl)c1	-0.29	.
CCOc1ccc(C(=O)Nc2nc3c(OC)cccc3s2)cc1	1.4	-0.05
S=C(Cc1ccc(CC(=S)N2CCOCC2)cc1)N1CCOCC1	0.12	1
Cn1nc(C(C)(C)C)cc1C(C)(C)C	-0.74	-0.25

SMILES	CapD inh	AID504770
CCOC(=O)C1=C(C)N=c2s/c(=C/c3cccc([N+](=O)[O-])c3O)c(=O)n2C1c1cc(OC)c(OC)c(OC)c1 (stereo not drawn)	-0.26	.
O=S(=O)(c1cccs1)N1CCc2ccccc21	0.4	0.6
O=C(CN1CCC(C(=O)c2ccc(F)cc2)CC1)Nc1ccccc1	.	-0.2
CCOC(=O)c1c(C)n(C)c2ccc(OCC(O)CNCc3ccco3)cc12 (stereo not drawn)	0.38	1.8
O=C1c2ccccc2C(=O)c2c1cccc2-c1cccc2c1C(=O)c1ccccc1C2=O	0.91	.
CCN(CC(=O)Nc1ccc(Br)cc1)C(=O)c1nc2nc(C)cc(C)n2n1	.	-0.25
O=C(NCc1ccccc1)c1ccc(N2CCCC2=O)cc1	0.2	1.2
CN(CC(=O)Nc1ccc(OC(F)(F)F)cc1)C(=O)/C=C/c1ccco1	.	-0.55

SMILES	CapD inh	AID504770
CC(Oc1cccc(Oc2ccccc2)c1)C(N)=O (stereo not drawn)	.	0.25
CC(C)(C)c1ccc(COCc2cc3cccc4c3n(c2=O)CCC4)cc1	-0.17	.
COc1cc(C(=O)N2CCSC2=NCCc2ccccc2)ccc1OCc1c(C)noc1C	.	0.3
COc1cc2nc(C3CCC3)n(NC(=O)COc3ccccc3)c(=O)c2cc1OC	.	0.05
CC1(C)O[C@@H]2CC3C4CCC5=CC(=O)C=C[C@]5(C)[C@@]4(F)[C@@H](O)C[C@]3(C)[C@]2(C(=O)CO)O1 (stereo partly drawn)	0.22	0
COc1ccc(OC)c(C2=NOC(C(=O)Nc3c(C)n(C)n(-c4ccccc4)c3=O)C2)c1 (stereo not drawn)	5.6	0.4
COc1ccc(-c2coc3cc(O)ccc3c2=O)cc1	.	0.25
CCOC(CNC(=O)Nc1cccc(C(F)(F)F)c1)(OCC)c1ccncc1	0.015	.

Exported with values under each structure: entries from further up.
Below each SMILES: CapD inh	AID504770
- COc1cc(C(=O)N2CCSC2=NCCc2ccccc2)ccc1OCc1c(C)noc1C
  .	0.3
- COc1ccc(-c2coc3cc(O)ccc3c2=O)cc1
  .	0.25
- CCOC(CNC(=O)Nc1cccc(C(F)(F)F)c1)(OCC)c1ccncc1
  0.015	.
- COc1cc2nc(C3CCC3)n(NC(=O)COc3ccccc3)c(=O)c2cc1OC
  .	0.05

The listing continues.
SMILES	CapD inh	AID504770
O=c1oc2cc(O)ccc2c2c1CCCC2	.	-1.1
O=C1CNC(=O)/C1=C\c1ccc(Br)cc1	0.3	-0.35
COCCNC(=O)c1ccc(Cl)cc1	.	-0.9
C=CCC1(CC=C)CCCN1	.	-0.55
O=C(OCCSCCS(=O)(=O)c1ccc(Cl)cc1)c1ccccc1Cl	-0.27	.
COc1ccc(C(O)c2cccs2)cc1OC (stereo not drawn)	8.6	-0.6
CCCc1ccc(OCc2ccc(C(=O)n3cc(Br)cn3)cc2)cc1	-0.29	0.65
O=C(Cc1ccccc1)NC1CCN(S(=O)(=O)c2cccc(C(F)(F)F)c2)CC1	0.21	.

SMILES	CapD inh	AID504770
CCNC(=O)CC1S/C(=N\N=C\c2ccc(C)o2)NC1=O (stereo not drawn)	-1.6	-1.1
O=C(CCCn1c(=S)[nH]c2ccc(Br)cc2c1=O)N1CCN(c2ccc(F)cc2)CC1	-0.76	.
O=C(Nc1ccc(CSc2ccc(F)cc2)cc1)c1ccc(Cl)cc1	0.3	.
Cc1coc(NC(=O)CSc2nc3c(c(C(F)(F)F)c2C#N)CC(c2ccccc2)CC3)n1 (stereo not drawn)	0.59	-0.8
O=C(CN1CCN(c2ccc(F)cc2)CC1)Nc1nnc(C(F)(F)F)s1	0.38	.
COc1ccc(-c2c(N)n[nH]c2C)cc1OC	1.4	-1.1
CC1CCCC(C)N1C(=O)COC(=O)c1cccc(Br)c1 (stereo not drawn)	-0.42	-0.35
O=C(/C=C/c1cn(-c2ccccc2)nc1-c1ccc2c(c1)OCCO2)NCCO	.	-0.15

SMILES	CapD inh	AID504770
Cc1csc(NC(=O)c2cc3c(s2)CCC3)n1	-0.11	-1.9
N#CCc1nc(-c2ccc3c(c2)OCCCO3)cs1	7	-0.35
CCOC(=O)CN1CC23C=CC(O2)C(C(=O)Nc2ccc(CC)cc2)C3C1=O (stereo not drawn)	0.025	-0.15
CC1CC(C)CN(C(=O)COc2ccccc2)C1 (stereo not drawn)	-0.08	-0.1
O=C(c1ccc(C(F)(F)F)cc1)N(c1ccccc1)n1c(-c2cccc([N+](=O)[O-])c2)csc1=S	0.65	.
N#CC1=C(SCC(=O)c2cc3ccccc3oc2=O)NC(=O)C(C#N)C12CCCCC2 (stereo not drawn)	-0.16	.
CCOC(=O)C1=C(N)N(c2ccc([N+](=O)[O-])cc2)C2=C(C(=O)CCC2)C1c1cc(OC)c(OC)c(OC)c1 (stereo not drawn)	-0.23	.
